# StopGo FLuc = Primary qHTS Assay for Foot and Mouth Disease Virus Antivirals against NCGC Sytravon and CBC Compound Libraries: Firefly Luciferase Signal. HEK cells with a luciferase reporter of 2A StopGo recoding. Potency, µM (top dose mostly 57.5 µM), for the others: top-dose signal change, negative = less light. actives 0.23% (n = 120,000). AID 1745856, 2022; active = well fitted falling curve with a large enough effect; inconclusive = small, poorly fitted or top-dose-only effect; inactive = no such curve, though single readings can be large or run the other way; also: nearly all actives have a fitted effect of over 60% in size; overnight with compound
# 2A Renilla = Primary qHTS Assay for Foot and Mouth Disease Virus Antivirals against NCGC Sytravon and CBC Compound Libraries: Renilla Luciferase Signal; Potency, µM (highest dose often 57.5 µM), for the others: at the highest dose signal change, negative = less light; HEK cells with a luciferase reporter of 2A StopGo recoding; actives 0.32% (n = 120,000); AID 1745857, 2022; active means well fitted falling curve with a large enough effect; inconclusive means small, poorly fitted or top-dose-only effect; inactive means no such curve, though single readings can be large or run the other way; also: nearly all actives have a fitted effect of over 55% in size; overnight with compound
# * = called active by the depositor; ? = inconclusive; [ ] = dose if it differs, or a comment. % is scaled to controls: 0 for no effect and ±100 for the full control effect; potency is read from the fitted curve at half-maximal effect. A portion of the library (hit frequency here may not be typical).
# Values run as follows: StopGo FLuc, 2A Renilla
O=C(c1ccc(-n2cncn2)cc1)N1CCCC1c1nc2ccccc2[nH]1 (centres undefined)
  -5.4%, -9.7%
O=C(O)CNC(=O)CC(F)(F)F
  -1.3%, -2.3%
COC(=O)C1=C(C)N(C)C(C)=C(C(=O)OC)C1c1cccs1
  0.0%, 43.4%[activator]
CNC(=O)c1ccc(-c2nc(CN3CCN(C(=O)Nc4ccc(C)c(C)c4)CC3)c(C)o2)cc1
  4.5%, -8.9%
Cc1c(CC(=O)Nc2ccc(C(C)C)cc2)c(=O)oc2cc(O)ccc12
  8.1%, 5.5%
O=Cc1ccc(CN2CCSCC2)o1
  -5.7%, 7.6%
CN(Cc1ccccc1)c1ccc(-c2nc(-c3ccccc3)no2)cc1[N+](=O)[O-]
  27.6%, 0.1%
CC(N)c1cccc(S(N)(=O)=O)c1 (centres undefined)
  0.0%, -2.3%[1.06 µM]
O=C(NNC(=O)c1ccccc1OCCOc1ccccc1)c1cccc(F)c1
  0.0%, 52.1%[activator]
CC(C)c1nnc2c(=O)n(CC(=O)Nc3ccccc3C(F)(F)F)c3ccccc3n12
  26.9%, 1.1%
CC(=O)N1CCCc2cc(S(=O)(=O)N(Cc3ccccc3)C(C)C)ccc21
  ?, -0.2%
Cc1ccc2oc(=O)cc(CN3CCC4(CC3)OCCO4)c2c1
  8.4%, 0.0%
CCOc1ccc(CNC(=O)C2CCN(Cc3cc4ccccc4n3Cc3ccccc3C)CC2)cc1
  -17.6%, -4.6%
CCS(=O)(=O)Nc1ccc(-c2cn3ccsc3n2)cc1
  147.7%[activator], 13.7%
COC(=O)c1ccc(CNC(=O)c2ccccc2C(F)(F)F)cc1
  38.6%[activator], 21.0%
Cc1cccc(C(=O)N2CCc3cc(CNC(=O)c4ccc(Br)o4)ccc32)c1
  -21.1%, 73.7%[activator]
Cc1cccc2c(=O)c(-c3ccc4c(c3)OCO4)c(NC(=O)C(C)C)oc12
  9.8%, 1.2%
CCNc1c(NS(=O)(=O)c2cc(C)cc(C)c2)c(=O)oc2ccccc12
  7.6%, 10.3%
O=C(CSc1nc2ccccc2o1)Nc1ccccc1
  0.0%, -4.3%
CCC(=O)Nc1cc(NC(=O)CC)cc(-c2nc3ccccc3o2)c1
  -2.9%, 17.1%
COc1ccc(C2CC(=O)Nc3nc(N)sc32)cc1OC1CCCC1 (centres undefined)
  25.1%, 3.8%
O=C(Nc1cccc(Cl)c1)c1cc(S(=O)(=O)N2CCC3(CC2)OCCO3)ccc1F
  -0.5%, -14.1%
Cc1cccc(NC(=O)CSc2nncn2CCc2cccs2)c1C
  11.6%, 7.0%
Cn1c(=O)c2c(nc(NCc3ccc4c(c3)OCO4)n2C)n(C)c1=O
  -0.5%, -12.1%
Cc1cc(=O)oc2c(C)c(OC(C)C(=O)NCCCN3CCOCC3)ccc12 (centres undefined)
  -5.5%, -10.6%
COc1ccccc1Nc1nc(-c2ccccc2Cl)c2cc(Br)ccc2n1
  -19.0%, -12.3%
CCOc1nc2ccccc2nc1N1CCC(C(=O)NC(C)c2ccccc2)CC1 (centres undefined)
  -5.5%, -7.2%
CCOC(=O)c1cnc2c(Cl)c(Cl)ccc2c1NCCO
  16.4%, 8.3%
Cc1nc(CSc2ccccc2C(=O)Nc2nc(-c3ccc(C)c(C)c3)cs2)no1
  57.1%[activator], 0.4%
COc1ccc(OCCN2CCN(C3CCS(=O)(=O)C3)CC2)cc1 (centres undefined)
  27.0%, -12.1%
CCOc1ccc(-n2nnc(C(=O)Nc3cccc(C)c3C)c2N)cc1
  -0.6%, 1.4%
CCOc1ccc(-c2nc3cc(NC(=O)COc4cccc(C)c4)ccc3o2)cc1
  17.2%, -12.5%
N#Cc1ccc(C(=O)Nc2ccc(Cl)c(-c3nc4ncccc4o3)c2)c(F)c1
  0.5%, -4.1%
O=C(Nc1cccc2c1CCCC2)c1ccccc1
  58.3%[activator], 22.0%
COc1ccc(/C=C/c2nc(C#N)c(NCCCn3ccnc3)o2)cc1OC
  28.6%, 9.1%
CCOC(=O)c1cccc(NC(=O)C2CCCN(c3nnc(C)c4c(C)n(-c5ccccc5)nc34)C2)c1 (centres undefined)
  6.5%, 24.3%
CCN(CC)S(=O)(=O)Nc1cc(S(=O)(=O)N2CCOCC2)ccc1NCC1CCCO1 (centres undefined)
  -2.8%, 29.2%
CN1C(=O)c2ccccc2Sc2ccc(NC(=O)Cc3ccc(Cl)cc3)cc21
  0.3%, 33.9%[activator]
CC(=O)N1CCc2cc(CNS(=O)(=O)c3cccs3)ccc21
  129.2%[activator], 73.0%[activator]
CCN(C(=O)CSc1nnc(-c2cc(OC)c(OC)c(OC)c2)o1)c1ccccc1
  8.1%, 20.0%
Cc1c(N(Cc2cccc(Cl)c2)S(C)(=O)=O)c(=O)n(-c2ccccc2)n1C
  -8.4%, -8.5%
Cc1cc(-n2cccc2C=O)ccc1Br
  9.4%, -5.3%
O=C(COc1ccc(Br)cc1F)OCC(=O)N1CCNC1=O
  16.0%, 5.3%
O=C(CCCc1cccs1)N(Cc1ccc(F)cc1)C1CC1
  0.0%, 21.6%
COc1ccc(CC(=O)Nc2ccc(-c3nc4ccccc4s3)c(C)c2)cc1OC
  99.1%[activator], 1.0%
CCc1ccc(C(=O)C2CC(=O)Nc3c2c(C)nn3-c2ccc(F)cc2F)s1 (centres undefined)
  9.5%, 11.2%
CCOCCOC(=O)COc1ccc2c(=O)c(Oc3ccc(OC)cc3)c(C(F)(F)F)oc2c1
  -4.2%, 2.2%
Cc1cc2c(cc1S(=O)(=O)N1CCC(C(=O)N3CCCCC3)CC1)OC(C)C(=O)N2 (centres undefined)
  -6.9%, 1.9%
CCC1CCCCN1C(=O)CSc1nc2cc(S(=O)(=O)Nc3ccc(OC)cc3)ccc2o1 (centres undefined)
  -1.7%, 204.1%[activator]
COc1cccc(C(=O)NCC(c2ccc3c(c2)OCO3)N2CCN(C)CC2)c1 (centres undefined)
  -8.0%, -13.1%
CCOC(=O)C1CCN(CCC(=O)Nc2ccccc2Cl)CC1
  16.6%, 7.1%
O=C(Cc1cccs1)NC1CC(=O)N(c2ccc(F)cc2)C1 (centres undefined)
  7.0%, -3.8%
O=C(Nc1ccccc1F)c1oc2ccccc2c1NC(=O)c1c(F)cccc1F
  182.0%[activator], 17.7%
Cn1c(SCc2cc(Cl)c3c(c2)OCCCO3)nnc1-c1ccncc1
  -4.1%, -3.5%
CCOc1ccc(CCNC(c2nnc(-c3ccccc3)o2)c2ccccc2Cl)cc1OCC (centres undefined)
  -2.0%, 97.5%[activator]
CCc1nc2ccccc2c(C(=O)OCC(=O)NC2CCCC2)c1C
  23.3%, 26.9%
CCN1CCN(c2cc(C)c3cc(NC(=O)/C=C/c4ccc(OCCC(C)C)cc4)ccc3n2)CC1
  8.8%, -7.4%
Cc1cc2oc(C(=O)N(Cc3ccccc3)Cc3ccco3)cc(=O)c2cc1Cl
  -12.5%, 20.9%
O=C(Nc1ccc(SC2CCCC2)cc1)C1CCC1
  48.3%[activator], 7.0%
CCCCCC(C)NCc1sccc1C (centres undefined)
  11.3%, 11.4%

# Following part
# Values run as follows: StopGo FLuc, 2A Renilla
O=C1/C(=C/c2cnc(-c3ccccc3)nc2)CS(=O)(=O)c2ccccc21
  17.2%, -10.7%
O=C(c1ccc([N+](=O)[O-])cc1)N(Cc1ccco1)c1ccccn1
  38.8%[activator], 10.2%
CCCCn1c(=O)c2oc3ccccc3c2n(Cc2cccc(C)c2)c1=O
  -2.6%, -4.3%
O=C(OCC(=O)N1CCc2ccccc21)c1cc(Cl)ccc1[N+](=O)[O-]
  -6.2%, -1.9%
CC(C)c1nn2c(=O)cc(COC(=O)C3CCCCC3)nc2s1
  -13.6%, -5.1%
Cc1ccc(-n2ncc3c(N4CCN(c5ccccc5)CC4)ncnc32)cc1C
  -3.8%, -9.3%
Cc1cc(C(=O)N2CCN(C(=O)C(C)C)CC2)c2ccccc2n1
  -12.9%, -14.8%
O=C1[C@@H]2CSC(c3ccc(F)cc3)N2C(=O)N1c1ccc(Cl)cc1 (some centres undefined)
  8.5%, 8.0%
FC(F)(F)c1ccnc(Oc2ccc(-c3nc4ccccc4s3)cc2)n1
  140.9%[activator], 6.1%
Cc1ccc2oc(-c3ccc(Cl)c(NC(=O)c4cc5ccccc5o4)c3)nc2c1
  197.3%[activator], 4.0%
O=C(NCc1ccc(F)cc1)C1CCN(c2ncnc3c2nc2n3CCCCC2)CC1
  -16.3%, -9.0%
Cc1cccc(C)c1NC(=O)c1ncoc1-c1ccco1
  9.9%, -4.8%
O=Cc1ccc(OCc2ccc(Br)cc2)cc1
  241.2%[activator], 13.8%
Cc1ccc2c(=O)cc(C(=O)Nc3cccc(C(F)(F)F)c3)oc2c1C
  -13.2%, 3.7%
Cc1ccc2oc(=O)c(S(=O)(=O)N3CCN(C)CC3)cc2c1
  4.1%, -4.9%
CC1=C(C(=O)OCC2CCCCC2)C(c2ccc(Cl)cc2Cl)CC(=O)N1 (centres undefined)
  -18.2%, -8.4%
N#Cc1nc(C2CC2)oc1N1CCN(CC2CCCCC2)CC1
  11.0%, 5.1%
Cc1cccc(N(CC(=O)N(C)Cc2ccccc2)S(=O)(=O)c2ccccc2)c1C
  -18.9%, 72.9%[activator]
CC(=O)Nc1ccc(NC(=O)C2Cc3ccccc3N2C(=O)c2ccccc2)cc1 (centres undefined)
  8.1%, 29.5%
COc1cccc(-c2ocnc2C(=O)Nc2ccccc2OC)c1
  15.6%, 1.5%
CCS(=O)(=O)c1ncc(N(Cc2ccco2)Cc2ccccc2F)c(C(=O)Nc2cccc(Cl)c2)n1
  1.6%, -2.4%
N#Cc1ccc2c(C=O)c[nH]c2c1
  13.7%, 3.6%
O=C(Cn1c(=O)n(Cc2nc(-c3ccccc3)no2)c(=O)c2cc3c(cc21)OCO3)Nc1cccc(C(F)(F)F)c1
  -3.8%, -3.7%
CC(=O)C(C#N)c1ccccc1 (centres undefined)
  7.4%, 2.2%
CC(C(O)c1ccc(O)cc1)N1CCC(Cc2ccccc2)CC1 (centres undefined)
  -13.7%, -8.6%
O=C(c1cc(=O)c2ccccc2o1)N(Cc1ccc(F)cc1)C1CCS(=O)(=O)C1 (centres undefined)
  51.1%[activator], 24.3%
C=CCN(C(=O)c1cn(C)c2ccccc12)C1CCS(=O)(=O)C1 (centres undefined)
  -13.0%, -12.9%
C=C(C)/C=C1/C(Cc2ccccc2)N(CC2CC2)C(=N)N1C(=O)OCc1ccccc1 (centres undefined)
  9.9%, 82.6%[activator]
COc1ccc(-n2cc(C(=O)NCCc3cc(OC)ccc3OC)c3ccccc3c2=O)cc1
  -9.2%, -14.9%
CC(C)c1nc(C#N)c(NCC(c2ccccc2Cl)N2CCOCC2)o1 (centres undefined)
  28.8%, 26.6%
COC(=O)c1cc(-c2ccc(OC)c(OC)c2)nc2onc(C(C)C)c12
  64.8%[activator], 53.0%[activator]
O=C(c1ccccc1)C(O)c1ccccc1 (centres undefined)
  -5.4%, -0.2%
Cc1cc(SCC(=O)Nc2ccc(F)cc2F)nc2ccccc12
  3.1%, -3.0%
O=C(c1cc(-c2ccc(Cl)s2)nc2ccccc12)N1CCOCC1
  33.0%[activator], 38.5%[activator]
CNS(=O)(=O)c1cn(CC(=O)Nc2ccc(C)cc2C)cc1S(=O)(=O)NC
  -9.1%, 29.7%
Fc1ccc(-c2noc(CCc3nc4ccccc4[nH]3)n2)cc1
  18.2%, -3.3%
CC(NS(=O)(=O)c1ccc2c(c1)CCN2C(=O)CCCC(=O)O)c1ccccc1 (centres undefined)
  0.0%, 12.9%
COc1cc(OC)c(OC)cc1/C=C/c1nc2ccccc2c(=O)n1-c1ccc(Br)c(C)c1
  -8.4%, -7.9%
CNCc1ccc(-c2ccc(C(=O)OC)cc2)o1
  171.7%[activator], 30.6%
CCOC(=O)c1c(-c2ccccc2)csc1NC(=O)c1cc(-c2ccc(F)cc2)on1
  -11.6%, 17.4%

# Laid out differently: results already given.
Cc1cccc(C)c1NC(=O)c1ncoc1-c1ccco1
  StopGo FLuc = 9.9% | 2A Renilla = -4.8%
CCOc1ccc(-n2nnc(C(=O)Nc3cccc(C)c3C)c2N)cc1
  StopGo FLuc = -0.6% | 2A Renilla = 1.4%

# Further compounds.
# Values run as follows: StopGo FLuc, 2A Renilla
Cc1ccccc1-c1cc2nccc(-c3cc(Cl)ccc3O)n2n1
  -5.2%, 11.7%
O=C(/C(=C/c1ccc(Cl)cc1)c1nc2ccccc2o1)c1ccccc1
  168.6%[activator], 22.4%
Nc1cc([N+](=O)[O-])ccc1C(=O)O
  -1.7%, -8.7%
O=C(CCc1cccnc1)Nc1nc(-c2ccc3c(c2)CCO3)cs1
  ?, ?
CC(C)CN(CCCNC(=O)CN1N=C(c2ccccc2)CCC1=O)CC(C)C
  -15.0%, -9.4%
Cc1ccc(C(=O)O)cc1-c1ccc(/C=C(/C#N)c2nc3ccccc3[nH]2)o1
  27.5%, 4.1%
C/C(=N\NC(N)=S)c1cc(C(C)(C)C)cc2c1CCC2(C)C
  ?, ?
O=C(/C=C\c1ccc2c(c1)OCO2)NC1CC(=O)N(c2ccc(Cl)cc2)C1 (centres undefined)
  -18.3%, -11.9%
CCc1ccc(C2CC(=O)c3c([nH]c(C(=O)OC4CCC(C)CC4)c3C)C2)cc1 (centres undefined)
  9.2%, 13.6%
Cc1ccccc1-c1nnn(CCC(=O)Nc2sc3c(c2C#N)CCCC3)n1
  41.9%[activator], 34.3%[activator]
COc1ccc(N2CCN(C(=O)C3CCCN(S(=O)(=O)c4ccc5c(c4)oc(=O)n5C)C3)CC2)cc1 (centres undefined)
  -6.7%, -3.3%
